HCMV NEC inh = inhibitors of HCMV UL50-UL53 nuclear egress complex interaction; HTRF UL50-UL53 interaction, normalized percent inhibition; inhibition, % (concentration not given with the values); 190,000 tested, 0.15% active;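 active means both replicates at 50% or more, plus weaker picks with an unusually low signal ratio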;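 further: stock transfer was 100 nL into about 20 µL; 0% = negative control wells and 100% = wells with untagged competitor protein; inactives centre near -12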
GIV Gai3 FP = inhibitors of GIV GBA-motif binding to rat Galpha-i3. percent of control (FP), % (no concentration beside the values). AID 1224905. 210,000 tested, 0.42% active. Galpha-i3/FITC-GIV peptide fluorescence polarization, 90 min; hits give low values; scaled: aluminum fluoride 0%, vehicle 100%. P08753;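 active means replicate mean at 85% of control or lower, very high polarization wells dropped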;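 further: wells of about 15 µL received 100 nL stock; the first replicate is given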
Target sequence (P08753 whole entry, looked up): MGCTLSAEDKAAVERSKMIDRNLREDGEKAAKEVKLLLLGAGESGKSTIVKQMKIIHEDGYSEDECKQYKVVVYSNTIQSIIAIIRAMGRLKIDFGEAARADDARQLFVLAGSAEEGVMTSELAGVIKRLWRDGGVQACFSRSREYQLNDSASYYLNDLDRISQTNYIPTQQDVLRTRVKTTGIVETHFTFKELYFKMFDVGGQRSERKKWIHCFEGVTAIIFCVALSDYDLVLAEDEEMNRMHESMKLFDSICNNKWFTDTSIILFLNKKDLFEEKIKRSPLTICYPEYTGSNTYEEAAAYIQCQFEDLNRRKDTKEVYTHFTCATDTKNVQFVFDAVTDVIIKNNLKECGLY
Sa growth inh = S. aureus growth inhibition | 170,000 tested, 0.53% active | S. aureus RN4220 growth, OD600, 20 h, 42 °C; hits give low values | relative growth, % (concentration not given with the values) | AID 720641;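 active means growth at 42 °C up to 50% and 20 or more points under that at 30 °C, or under 10% at both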;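 further: 300 nL library stock went into each well; scaled to the means of positive and negative controls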
Sa growth inh second temp = also measured in Sa growth inh; calls as there; relative growth, %; measured here: growth at 30 °C;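 optical density after 20 h as mean of two plates; 100% = untreated growth and lower means inhibition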
* marks the source's active call; other numbers are inactive results; x = not tested or not shown; & = joins results of further samples.

SMILES	HCMV NEC inh	GIV Gai3 FP	Sa growth inh	Sa growth inh second temp
CC(=O)Oc1ccc(C(=O)Nc2ccc3nc(-c4ccc(Br)cc4)oc3c2)cc1	2	104	x	x
COc1cc(N(C(=O)Cn2nnc3ccccc32)C(C(=O)NCC2CCCO2)c2ccc(F)cc2)ccc1-n1cnnn1 (stereo unspecified)	9	108	87	92
O=S(=O)(Cc1ccccc1)N1CCN=C1N1CCN(c2cccc(Cl)c2)CC1	-5	103	x	x
CCOC(=O)CSc1ncnc2sc3c(c12)CCC3	-16	100	101	79
CCOc1ccc(-n2c(SCc3ccc(C(=O)OC)o3)nc3c([nH]c4ccccc43)c2=O)cc1	x	95	114	86
Cn1nc(C2CC2)cc1NC(=O)CC(CC(=O)O)c1ccccc1 (stereo unspecified)	-8	99	85	86
COC(=O)C(Sc1nc(C)cc(C)c1C#N)c1ccccc1 (stereo unspecified)	-14	101	97	84
Cc1c(CC(N)C(=O)O)sc2ccccc12 (stereo unspecified)	-5	102	100	99
CC(=O)NCCOc1nc(N2CCCCC2)nc(N2CCCCC2)n1	-16	102	77	79
Cc1onc(-c2ccccc2)c1CNC(=O)c1ccco1	-6	99	98	92

Profiles as entered above.
Cc1c(CC(N)C(=O)O)sc2ccccc12 (stereo unspecified) across the screens: HCMV NEC inh = -5; GIV Gai3 FP = 102; Sa growth inh = 100; Sa growth inh second temp = 99
CC(=O)NCCOc1nc(N2CCCCC2)nc(N2CCCCC2)n1 across the screens: HCMV NEC inh = -16; GIV Gai3 FP = 102; Sa growth inh = 77; Sa growth inh second temp = 79

(continued)
SMILES	HCMV NEC inh	GIV Gai3 FP	Sa growth inh	Sa growth inh second temp
Cc1c(Cl)cccc1N1CCn2c1nc1c2c(=O)n(CC(=O)O)c(=O)n1C	-1&12	103&96	105	91
O=C(CN1C(=O)CSc2ccccc21)NC1CCCCCCC1	-6	98	102	94
O=C(NCc1ccccc1)c1ccc2c(=O)n(CCC3=CCCCC3)c(=O)[nH]c2c1	x	104	119	88
CC(C)CNC(=O)c1cccc(NC(=O)c2ccco2)c1	-3	x	90	78
O=C(CN1c2ccccc2S(=O)(=O)c2ccccc21)NC1CCCCC1	-14	99	x	x
O=C(Nc1ccc(-c2n[nH]c(=S)o2)cc1)c1ccccc1Br	-4	98	99	102
O=C1OCCN=C(c2ccccc2)c2ccccc21	-21	105	86	89
COc1ccc(Nc2c(C)c(C)nc3ncnn23)cc1	-3	104	x	x
COc1ccc(C2CC(=O)C3=C(C2)NC(C)=C(C(=O)OCC(C)C)C3c2cc(OC)c(OC)c(OC)c2)cc1 (stereo unspecified)	-34	105	x	x
CC1=NN(C(=O)c2ccccc2)C(O)(C(C)(C)C)C1 (stereo unspecified)	-8	105	104	57
[O-][n+]1onc2c1CCC1N(O)C(c3ccccc3)CC21O (stereo unspecified)	-3	101	114	79
CCCCn1c(=N)n(CC(=O)c2ccc(Cl)c(Cl)c2)c2ccccc21	-7	109	105	80
COc1ccc(CCNC(=O)CN2CCC(C)CC2)cc1	-18	100	106	92
CC1=CC(C)(C)N2C(=O)C(=O)c3c4c(cc1c32)CCC4	-42	98	x	x
O=C1/C(=C\c2ccc(F)cc2)N=C(c2ccccc2)N1Cc1ccc(F)cc1	-34	103	88	85
COc1ccc(C(=O)NCC2COc3ccccc3O2)cc1 (stereo unspecified)	-8	100	97	87
O=C(NCCCc1nc2ccccc2n1Cc1cccc(Cl)c1)c1ccco1	2	96	103	83
CC1=N/C(=C\C=C\c2ccccc2)C(=O)O1	-29	103	95	90
O=C(c1cccc(-c2noc(-c3ccoc3)n2)c1)N1CCOCC1	-4	101	x	x
CCc1nnc(NC(=O)c2noc3c2COc2ccc(C)cc2-3)s1	x	102	106	68

Results in Sa growth inh second temp, HCMV NEC inh and GIV Gai3 FP, for 3 of the compounds above:
Compound	Sa growth inh second temp	HCMV NEC inh	GIV Gai3 FP
CC(C)CNC(=O)c1cccc(NC(=O)c2ccco2)c1	78	-3	x
O=C(CN1c2ccccc2S(=O)(=O)c2ccccc21)NC1CCCCC1	x	-14	99
O=C(Nc1ccc(-c2n[nH]c(=S)o2)cc1)c1ccccc1Br	102	-4	98

Continuation:
SMILES	HCMV NEC inh	GIV Gai3 FP	Sa growth inh	Sa growth inh second temp
C#CCSC1=N/C(=C/N(C)C)C(=O)N1	-46	107	97	90
OC(COc1ccc(Br)cc1Br)C[N+]1(Cc2ccccc2)CCOCC1 (stereo unspecified)	-25	x	78	57
Nc1ccnc2cc(C(F)(F)F)ccc12	-26	100	76	72
COc1cccc(C(=O)NCCc2csc(C)n2)c1	-22	105	x	x
COC(=O)c1ccc2c(=O)n(CCCCCC(=O)NCCc3ccccc3)c(=O)[nH]c2c1	x	105	118	94
CC1C(=O)N2CCCc3cc(S(=O)(=O)N4CCCCC4)cc1c32 (stereo unspecified)	3	97	112	87
CCOc1cccc(C(=O)N(Cc2ccc(F)cc2)Cc2ccco2)c1	-15	105	87	85
O=C(NCc1ccccc1)C1CCCN(S(=O)(=O)c2ccccc2)C1 (stereo unspecified)	-8	101	93	96
O=C(NCC1CCCO1)C1CCN(CC2CCCCC2)CC1 (stereo unspecified)	-1	x	111	89
O=C1CSC(=S)N1Nc1ccccc1	-19	107	91	74
COCc1cc(=O)[nH]c(-c2ccc(Cl)cc2)n1	-16	109	101	94
O=C(N/N=C/c1cccc2c1OCCO2)c1ccc(CN2CCOCC2)cc1	-56	101	92	95
C#CCn1c(=NC(=O)CC)sc2ccccc21	-2	104	104	95
CSc1nnc(CCNC(=O)C(c2ccccc2)C2CCCC2)n1C (stereo unspecified)	53	104	104	78
COCCCNC(=O)CCc1nc2sc3c(c2c(=O)[nH]1)CCC(C(C)(C)C)C3 (stereo unspecified)	-3	98	x	x
Cc1cc2ncn(CCOc3ccccc3C)c2cc1C	2	103	14	-1
C=CCOc1ccc(-c2nn3c(-c4ccccn4)nnc3s2)cc1	-26	118	x	x
CCCCN1CC(c2nc3ccccc3n2CC(=O)N(c2ccccc2)C(C)C)CC1=O (stereo unspecified)	-7	107	x	x
COc1cccc(NC(=O)COC(=O)c2cccc(S(=O)(=O)N(C)C)c2)c1	-33	x	89	97
COc1ccc(C2=NN(CC(=O)NCC3CCCO3)C(=O)CC2)cc1 (stereo unspecified)	x	100	138	84
O=S(=O)(c1ccccc1)c1nnn2c1nc(NCc1ccc(F)cc1)c1ccccc12	-13	104	x	x
CCOc1ccccc1NC(=O)Cn1c(=O)n(CCC(=O)NCc2ccc3c(c2)OCO3)c(=O)c2ccccc21	-10	98	97	90
O=c1c2cnn(-c3ccccc3)c2ncn1/N=C/c1ccncc1	-17	x	87	94
COc1ccc(C2CC(=O)C3=C(C2)Nc2ccccc2NC3c2ccc(OC(C)=O)cc2)cc1OC (stereo unspecified)	-24	105	x	x
O=C(O)c1cn[nH]c1-c1ccccc1	5	104	100	97
c1ccc(CSc2nnc(-c3cnccn3)s2)cc1	-4	98	80	103
CCc1ccc2c(c1)-c1ccccc1S(=O)(=O)N2CC(=O)N1CCCCC1	-13&-13	109&103	109	89
COc1cccc(-c2noc(NC3CC3)n2)c1	23	104	x	x
CC1(C)CC(=O)C2=C(C1)OC1=C(C(=O)CC(C)(C)C1)C2c1ccc(OCc2c(F)cccc2Cl)cc1	-12	107	x	x
N#CCC1NCCc2ccccc21 (stereo unspecified)	26	114	105	116
CCOC(=O)c1ccc(NC(=O)c2ccc(=O)[nH]c2)cc1	7	x	92	95
Cc1cc(C)nc(NS(=O)(=O)c2ccc(NC(=O)c3ccc(F)cc3)cc2)n1	9	110	x	x
CCOc1ccccc1NC(=O)C(CC)Sc1nc2ccncc2[nH]1 (stereo unspecified)	7	101	94	80
Cc1nn(S(=O)(=O)c2ccc(Br)cc2)c(C)c1S(=O)(=O)N1CCCC(C)C1 (stereo unspecified)	-10	109	x	x
Cc1cccc(C2CC(=O)NC3=C2C(=O)CCC3)c1 (stereo unspecified)	-26	95	x	x
ON=C1CCC2CC1CC/C2=N\O	-28	x	101	92
Cc1nn(C(=O)Nc2ccccc2Br)c2ccccc12	-29	102	x	x
CN(C)c1ccc(CNc2nc3ccccc3n2C)cc1	8	x	79	94
CCc1n[nH]c(=S)n1/N=C/c1ccsc1	-23	x	103	79
CC(C(=O)N1CCOCC1)N1C(=O)CCCc2ccccc21 (stereo unspecified)	-9	107	x	x
CC(C)CCNC(=O)N1Cc2cccn2-c2ccccc21	-6	100	x	x
CCOC(=O)c1ccc(S(=O)(=O)N2CCN(Cn3cnc4ccccc43)CC2)cc1	-14	x	71	81
CN(C)C(=S)Nc1ccccc1N1CCOCC1	-6	105	114	92
CSC1=C(C#N)C(c2ccc(C(C)C)cc2)CC(=O)N1 (stereo unspecified)	-3	x	96	85
Cn1c(SCCCn2c(=O)[nH]c3ccccc32)nnc1C(F)(F)F	-36	x	87	78
CCOC(=O)c1c(CNc2cccc(C(N)=O)c2)n(C)c2cc(Br)c(OC(C)=O)cc12	4	x	91	91
O=C(CN(Cc1ccccc1)C(=O)Cn1nnc(-c2ccc(F)cc2)n1)NC1CCCC1	-16	104	129	108
CCOc1cccc(CC(=O)N2CCc3c([nH]c4ccccc34)C2c2ccccc2)c1OCC (stereo unspecified)	x	104	79	95
O=C1CCCc2cc(S(=O)(=O)N3CCCC(C(=O)NCCC4=CCCCC4)C3)ccc2N1 (stereo unspecified)	-2	102	x	x
O=C(NC1CCCCC1)C(=S)N1CCCC1	-2	108	103	101
(list continues)
SMILES	HCMV NEC inh	GIV Gai3 FP	Sa growth inh	Sa growth inh second temp
Cc1nc(N2CCCC2)c2c(C(=O)N3CCN(c4ccccc4)CC3)c(C)oc2n1	x	101	87	82
COC(=O)c1ncn2c1C(=O)N(Cc1ccccc1)C(C)(C(=O)NC1CCCC1)C2 (stereo unspecified)	-11	108	x	x
Cc1ccc(C2CC(=O)C(C=NCCN3CCN(CC(=O)Nc4cc(C)cc(C)c4)CC3)=C(O)C2)cc1 (stereo unspecified)	7	113	88	98
COC(=O)C(O)(CC(=O)Nc1ccc(C)c(F)c1)C(F)(F)F (stereo unspecified)	6	102	96	106
COc1ccc(-c2onc(C)c2C)cc1S(=O)(=O)CCC(=O)N1CCc2ccccc2C1	3	105	x	x
CCCCNc1nc2c(S(=O)(=O)c3ccc(C)c(C)c3)nnn2c2ccsc12	x	111	119	97
CCS(=O)(=O)c1ccc(-c2ccc(NC(=O)CCC3CCCCC3)cc2)nn1	5	100	x	x
CCN(Cc1ccccc1)c1ccc(C(=O)O)cc1NS(=O)(=O)c1ccc(OC)cc1	-4	100	x	x
O=C(NCCc1csc2nc(-c3cccc(F)c3)nn12)c1ccc(Br)o1	x	104	92	76
Clc1ccc(NC2CCCCC2)nn1	-12	106	93	77
CC1CC(C)(C)NC(=S)N1CC(=O)N1CCC(Cc2ccccc2)CC1 (stereo unspecified)	x	103	87	76
CC(C)(C)c1ccc(C2=NC(=O)C(CC(=O)O)S2)cc1 (stereo unspecified)	-11	104	90	72
S=c1nc2[nH]c(=S)[nH]c(=S)c2c(-c2ccco2)[nH]1	-19	x	92	80
O=C(OCc1ncc(-c2ccccc2)o1)C12CC3CC(CC(C3)C1)C2	8	x	111	95
CCOC(=O)/C=c1\[nH]c(=O)/c(=C\c2ccc(C)s2)s1	-30	x	83	98
Cc1ccc(C)c(NC(=O)CCCn2nc(C)c3sc4ccccc4c3c2=O)c1	-6	105	100	84
CCCC1c2cccn2CCN1C(=O)NC1CCCCC1 (stereo unspecified)	-16	105	98	97
O=C1CN(C(=O)/C=C/c2cccs2)c2ccccc2N1	-30	x	85	91
O=C(CNS(=O)(=O)c1ccc(Cl)cc1)NC1CCCC1	-1	102	112	71
CCCNCc1cc(=O)n2[nH]c(NCc3ccc(CC)cc3)nc2n1	16	98	x	x
Cc1cccc(OC(C)C(=O)NN)c1C (stereo unspecified)	-36	x	76	94
COc1ccc(CNCc2ccc(F)cc2)cc1	x	102	99	85
CN(C)c1ccc(CNC23CN4CN(CN(C4)C2)C3)cc1	-10	106	114	86
COc1ccc(CNC(=O)c2cc3cccc4c3n2CC(C)S4)cc1OC (stereo unspecified)	x	103	108	94
CCCCN(CN1C(=O)C2C3C=CC(C3)C2C1=O)CN1C(=O)C2C3C=CC(C3)C2C1=O (stereo unspecified)	-40	100	x	x
CCN1C(=O)c2cc3ccccc3n2CC1(C)C(=O)NC1CCCC1 (stereo unspecified)	2	98	x	x
Cc1oc2ncn(CC(C)C)c(=O)c2c1NC(=O)NC1CCCCC1	-24	100	99	84

3 entries already listed, ordered by number of heavy atoms, falling.
SMILES	HCMV NEC inh	GIV Gai3 FP	Sa growth inh	Sa growth inh second temp
CCOC(=O)c1ccc(S(=O)(=O)N2CCN(Cn3cnc4ccccc43)CC2)cc1	-14	x	71	81
OC(COc1ccc(Br)cc1Br)C[N+]1(Cc2ccccc2)CCOCC1 (stereo unspecified)	-25	x	78	57
CC1=N/C(=C\C=C\c2ccccc2)C(=O)O1	-29	103	95	90

Bioassay records from PubChem BioAssay.
